MARV entry inh: qHTS for inhibitors of binding or entry into cells for Marburg Virus; Marburg virus pseudotyped entry inhibition, cell reporter; control for the full effect not named in the record; about a third of the inactives were read at about 46 µM; Potency, µM (series often up to 37.8 µM), without a hit: at the top dose activity change, negative = inhibition, usual class: inhibitors; 300,000 tested, 1.8% active; active = well fitted inhibition curve with a large enough effect; inconclusive = small, poorly fitted or top-dose-only effect, or effect the other way; inactive = flat fitted curve, though single readings scatter; tested in HEK293 cells; about a fifth of its hits are not listed in these tables; note: % is set by controls: 0 for no effect and ±100 for the full control effect; luciferase read-out
SARS PLP yeast: qHTS of Yeast-based Assay for SARS-CoV PLP; 330,000 tested, 0.19% active; S. cerevisiae expressing SARS-CoV PLpro, growth rescue; control for the full effect not named in the record; Potency, µM (top dose mostly 32.9 µM), for the others: at the top dose activity, positive = growth rescue; note: 0% is about no effect; nearly all actives have a fitted effect of over 55% in size; growth read by luminescence after 48 h
Cruzain noTriton: qHTS Assay for Promiscuous and Specific Inhibitors of Cruzain (without detergent) | Cruzipain (Trypanosoma cruzi), P25779 | purified cruzain, Z-FR-AMC fluorescence, no detergent | Potency, µM, for inactives: max response, negative = inhibition, hits mostly inhibitors | 200,000 tested, 2.3% active | AID 1476, 2009; active = well fitted curve in the direction sought with a large enough effect; inconclusive = small, poorly fitted or top-dose-only effect, or another doubt; inactive = no such curve, though single readings can be large; an effect the other way counts as inactive or inconclusive;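 note: plate controls were enzyme without inhibitor for no effect and buffer without enzyme for full effect; nearly all actives have a fitted effect of over 40% in size; top concentration of the series not given in the record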
Target sequence (P25779 123-467 limits assumed): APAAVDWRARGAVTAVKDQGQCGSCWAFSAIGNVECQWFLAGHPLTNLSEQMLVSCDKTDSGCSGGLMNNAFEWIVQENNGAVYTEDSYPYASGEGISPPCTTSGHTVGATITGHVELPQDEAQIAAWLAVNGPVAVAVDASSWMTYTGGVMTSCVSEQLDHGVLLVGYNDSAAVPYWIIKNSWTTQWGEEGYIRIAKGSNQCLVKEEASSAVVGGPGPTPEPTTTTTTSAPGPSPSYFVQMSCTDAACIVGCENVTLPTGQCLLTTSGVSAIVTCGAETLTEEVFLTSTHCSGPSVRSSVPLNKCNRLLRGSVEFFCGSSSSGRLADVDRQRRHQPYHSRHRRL
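Detergent-free condition (0.00005% Triton X-100) in acetate buffer pH 5.5 with DTT. 1.5 nM enzyme and compound were pre-mixed 15 min, then 2 uM Z-FR-AMC substrate added; reaction progress from fluorescence change between first and third reads (60 s).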
StopGo reporter: High Throughput Screening for Foot and Mouth Disease Virus Antivirals. human cells with a luciferase reporter of 2A StopGo recoding; control for the full effect not named in the record. Potency, µM (titrated, usually from 57.9 µM), without a hit: top-dose signal change, negative = less light. 410,000 tested, 1.2% active; active = well fitted falling curve with a large enough effect; inconclusive = small, poorly fitted or top-dose-only effect; inactive = no such curve, though single readings can be large or run the other way; tested in HEK293T cells; note: % is set by controls: 0 for no effect and ±100 for the full control effect; nearly all actives have a fitted effect of over 45% in size; luciferase light after 4 h
NS1 inh: qHTS Assay for Inhibitors of Influenza NS1 Protein Function; 270,000 tested, 0.4% active; S. cerevisiae slowed by influenza A NS1, growth recovery by OD600; AID 2326, 2010; Potency, µM (doses to about 46.1 µM), inactives show top-dose activity, positive = more growth; note: actives are rising curves; nearly all actives have a fitted effect of over 50% in size
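S. cerevisiae expressing influenza A NS1, grown in glucose, washed, then diluted 1:100 into pH 6.0 -URA galactose medium with 23 nl compound. Growth recovery read as OD600; NS1-free strain serves as control.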
Cruzain Triton: qHTS Assay for Promiscuous and Specific Inhibitors of Cruzain (with detergent); Cruzipain (Trypanosoma cruzi), P25779; purified cruzain, Z-FR-AMC fluorescence, 0.01% Triton; Potency, µM, inactives show max response, negative = inhibition, most hits filed as inhibitors; 200,000 tested, 0.43% active; active = well fitted curve in the direction sought with a large enough effect; inconclusive = small, poorly fitted or top-dose-only effect, or another doubt; inactive = no such curve, though single readings can be large; an effect the other way counts as inactive or inconclusive;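 note: plate controls were neutral wells for no effect and buffer without enzyme for full effect; nearly all actives have a fitted effect of over 40% in size; top concentration of the series not given in the record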
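In this qHTS format, compounds are incubated with 1.5 nM cruzain for 15 min at room temperature before 2 uM Z-FR-AMC is added. Release of AMC is followed at 360/450 nm, and progress is taken as the 60 s fluorescence difference.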
Lassa entry inh: qHTS for Inhibitors of binding or entry into cells for Lassa Virus | Lassa virus pseudotype entry inhibition, cell reporter; control for the full effect not named in the record | Potency, µM (titrated, usually from 37.9 µM), inactives show at the highest dose activity change, negative = inhibition, actives largely listed as inhibitors | 300,000 tested, 1.2% active; active means well fitted inhibition curve with a large enough effect; inconclusive means small, poorly fitted or top-dose-only effect, or effect the other way; inactive means flat fitted curve, though single readings scatter; tested in HEK293 cells; note: % is set by controls: 0 for no effect and ±100 for the full control effect; nearly all actives have a fitted effect of over 50% in size; luciferase read-out
RE007 growth inh: qHTS Assay for Inhibitors of the HIV-1 protein Vpr | 360,000 tested, 0.21% active | Potency, µM (highest dose often 92.2 µM), for the others: at the highest dose activity change, negative = less growth | S. pombe RE007 Vpr strain, BacTiter-Glo ATP luminescence, 24 h; control for the full effect not named in the record; active = well fitted falling curve with a large enough effect; inconclusive = small, poorly fitted or top-dose-only effect; inactive = no such curve, though single readings can be large or run the other way;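 note: % is set by controls: 0 for no effect and ±100 for the full control effect; nearly all actives have a fitted effect of over 50% in size; the assay follows cell death caused by Vpr and the record does not say whether a fall means rescue or toxicity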
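Fission yeast RE007 carrying one integrated HIV-1 vpr copy, seeded at OD 0.01 in PMG+AL medium with 23 nL pinned compound. Grown 24 h at 30 degrees; viability read by BacTiter-Glo luminescence after 5 min.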
Numbers without * were called inactive; ? = inconclusive; / = not tested or not shown; [ ] = remark or other dose. Unless noted, calls come from the whole dose curve; as a rule, active means well fitted rising curve with a large enough effect; inconclusive means small, poorly fitted or top-dose-only effect; inactive means no such curve, though single readings can be large or run the other way. Potency is the fitted concentration of half-maximal effect. Hits appear at their usual frequency, and some 4.7% of all compounds hit somewhere here.

SMILES	MARV entry inh	SARS PLP yeast	Cruzain noTriton	StopGo reporter	NS1 inh	Cruzain Triton	Lassa entry inh	RE007 growth inh
CCOC(=O)N1C(=O)[C@](c2ccc(Cl)cc2)(C(C)C)N1C(=O)OCC	/	-17%	/	28µM*	-65%	/	/	-2%
Cc1nccc(-c2cc(-c3ccc(Cl)cc3Cl)no2)n1	-16%	0%	/	40%[activator]	-1%	/	?	14%
CCc1ccc(NC(=O)Cn2c(=O)n(Cc3nc(C)no3)c(=O)c3cc4c(cc32)OCO4)cc1	/	/	1%	-20%	/	-2.8%	28%[46.1 µM]	/
N#C/C(=C\N1CCOCC1)c1ccccc1	10%	-2%	-2%	/	-56%	3.4%	9%	-7%
CCn1c2c(c(=N)c3ccccc31)CCC2	-26%	0%	/	?	-5%	/	-1%	-13%
Cn1c(=O)[nH]c(=O)c2c1ncn2CCN1CCOCC1	35%	4%	-6%	0%	0%	2.5%	?	40%
COc1cccc(CNC(=O)C(Cc2ccccc2)n2cccc2)c1 (stereo not given)	-18%	-2%	/	-23%	-44%	/	0%	-2%
Cc1cc(C)c(NC(=O)CSc2ccc3nnc(CCNC(=O)c4ccccc4)n3n2)c(C)c1	-3%	-9%	-1%	-14%	-5%	-5.3%	2%	12%
COc1cccc(Oc2nccc(N(C)C)c2C#N)c1	?	-3%	/	5%	-2%	/	1%[46.1 µM]	3%
CCCCC1=CC2=CC(=O)C(C)(OC(=O)CC)C(=O)C2=CN1Cc1ccc2c(c1)OCO2 (stereo not given)	-1%	-6%	/	-6%	23%	/	/	-6%
N/C(=N\OC(=O)C12CC3CC(CC(C3)C1)C2)c1ccncc1	-27%	4%	/	3%	-3%	/	14%	35%
Cn1c(=O)c2c(nc(N3CCOCC3)n2Cc2c(F)cccc2Cl)n(C)c1=O	-13%	-3%	-5%	-16%	3%	4.0%	?	0%
O=C(Nc1ccc(F)c(F)c1)C1CCN(S(=O)(=O)c2cccc3nonc23)CC1	-2%[46.1 µM]	1%	/	20µM*	?	/	-9%	1%
CCCn1c(SCC(=O)Nc2sc(C)c(C)c2C(=O)OC)nc2c1c(=O)n(C)c(=O)n2C	1%	0%	-22%	/	1%	-1.8%	/	/
COC(=O)c1ccccc1OP1(=O)COc2ccccc2OC1	-1%	-6%	1%	-24%	?	-4.2%	6%	0%
O=C(Cc1ccc(Cl)cc1)Nc1ccc2c(c1)C(=O)NC2=O	?	0%	/	0%	2%	/	0%	13%
Nc1n[nH]c(-c2ccccc2[N+](=O)[O-])n1	?	8%	15%	-3%	-6%	0.6%	18%	4%
Cc1ccc2oc(-c3ccco3)nc2c1	13%	-5%	0%	33%	-4%	-0.6%	28%	-11%
CC(=O)c1cccc(NC(=O)CC2SC(N3CCCCC3)=NC2=O)c1 (stereo not given)	4%	-6%	-6%	0%	-5%	1.0%	5%	-6%
Cc1ccc(Cl)c(OC(=O)C2CSC3(C)CCC(=O)N23)c1 (stereo not given)	?	-1%	/	-12%	/	/	-10%	-4%
CCOC(=O)C1(Cc2ccc(OC)cc2)CCN(C(=O)C2CCCO2)CC1 (stereo not given)	9%[46.1 µM]	-2%	/	12%	-4%	/	-11%	19%
CCOC(=O)CSc1nnc(CNC(=O)c2ccc(S(=O)(=O)N3CCCCC3)cc2)n1C	-6%	10%	1%	-12%	-13%	6.2%	11%	-13%
O=C(COc1ccccc1)NCCc1csc(-c2ccc(Cl)cc2)n1	/	/	?	-24%	/	-12%	9%[46.1 µM]	/
O=C(CCS(=O)(=O)Cc1ccccc1)N1CCN(Cc2ccccc2)CC1	5%	-1%	-8%	/	-2%	-2.0%	-8%	-3%
CC12CCC(C(=O)NCc3ccccn3)(OC1=O)C2(C)C (stereo not given)	?	-1%	-9%	-25%	-2%	2.1%	3%	-7%
COc1ccc(CN/C=C2\CCCCC2=O)cc1	-12%	-3%	-10%	24%	1%	-5.2%	-26%[14.3 µM]	12%
COc1ccc(-c2nnc(SCC(=O)N3CCC(C)CC3)o2)cc1	1%[46.1 µM]	/	0%	3%	/	-2.5%	11%[46.1 µM]	/
CCCn1c(CCNC(=O)c2ccco2)nc2ccccc21	?	-3%	/	-1%	-6%	/	-40%[46.1 µM]	-10%
CCSc1nnc(-c2cnn(-c3ccccc3)c2-n2cccc2)n1C	?	-2%	7%	2%	-75%	2.8%	-21%	22%
CCCCN(CCCC)c1nc2ccccc2nc1NS(=O)(=O)c1ccc(NC(C)=O)cc1	0%	12%	2%	-6%	-3%	3.6%	-26%	15%
CC1=C(C(=O)OCc2ccccc2)C(c2ccc(Cl)cc2)NC(=O)N1C (stereo not given)	/	-2%	/	?	-4%	/	/	23%
O=C(CSc1nnc(-c2ccncc2)n1CC1CCCO1)Nc1ccccc1Cl (stereo not given)	-5%[46.1 µM]	1%	/	-8%	2%	/	?	0%
CCCC1(C(=O)OC)NC(c2ccco2)C2C(=O)N(C)C(=O)C21 (stereo not given)	9%[46.1 µM]	0%	/	3%	-1%	/	2%	1%
COc1ccc(NC(=O)c2cccnc2Nc2ccccc2)cc1	-17%	14%[6.58 µM]	-2%	5%	-4%	-13%	21%	4%
Cc1cnc(NC(=O)CCCSc2nc3ccccc3s2)s1	-19%	7%	?	-2%	-7%	5.0%	-7%	4%
O=C(Nc1ccc(-n2ccnc2P(=O)(O)c2ccccc2)cc1)c1ccccc1Br	11%	2%	4%	19%	-17%	1.6%	8%	-4%
c1ccc(-c2cc3c(NCC4COc5ccccc5O4)ncnc3s2)cc1 (stereo not given)	?	-13%	?	-23%	-66%	-4.2%	12µM*	-10%
O=C1CCCc2nn(-c3ccccc3)nc21	15%	-2%	-9%	42%[activator]	4%	-2.6%	5%	-15%
CCOC(=O)C1CCN(C(=O)c2oc3ccc(S(=O)(=O)N4CC(C)CC(C)C4)cc3c2C)CC1 (stereo not given)	?	-9%	?	-29%	-10%	0.3%	-25%	1%
COc1cc(NC(=O)c2c(OC)cccc2OC)ccc1NC(=O)c1cc2ccccc2o1	?	-8%	/	23%	7%	/	-20%[46.1 µM]	-6%

Part of the list above in order of molecular weight, ascending.
SMILES	MARV entry inh	SARS PLP yeast	Cruzain noTriton	StopGo reporter	NS1 inh	Cruzain Triton	Lassa entry inh	RE007 growth inh
O=C1CCCc2nn(-c3ccccc3)nc21	15%	-2%	-9%	42%[activator]	4%	-2.6%	5%	-15%
COc1cccc(CNC(=O)C(Cc2ccccc2)n2cccc2)c1 (stereo not given)	-18%	-2%	/	-23%	-44%	/	0%	-2%
CCSc1nnc(-c2cnn(-c3ccccc3)c2-n2cccc2)n1C	?	-2%	7%	2%	-75%	2.8%	-21%	22%
CCCn1c(SCC(=O)Nc2sc(C)c(C)c2C(=O)OC)nc2c1c(=O)n(C)c(=O)n2C	1%	0%	-22%	/	1%	-1.8%	/	/
O=C(Nc1ccc(-n2ccnc2P(=O)(O)c2ccccc2)cc1)c1ccccc1Br	11%	2%	4%	19%	-17%	1.6%	8%	-4%

Following part:
SMILES	MARV entry inh	SARS PLP yeast	Cruzain noTriton	StopGo reporter	NS1 inh	Cruzain Triton	Lassa entry inh	RE007 growth inh
CC1(C)OC(=O)C(=NNc2ccc(Br)cc2)C(=O)O1	2%	-13%	3%	-21%	-7%	-6.0%	3%	0%
COc1ccc(Br)cc1CN1CCN(c2ncccn2)CC1	?	/	/	?	/	/	-4%	-7%
CCOC(=O)C(C)NC(=O)c1cn(-c2ccc(OC)cc2)c(=O)c2ccccc12 (stereo not given)	/	-2%	/	-14%	1%	/	/	6%
O=C1CCCN1CCCNc1ncnc2c1[nH]c1ccccc12	-2%	5%	20µM*	-16%	1%	16µM*	3%	-14%
COCCCNC(=O)CNC(=O)c1nn(-c2ccc(OC)c(Cl)c2)c(=O)c2ccccc12	/	0%	/	-5%	-2%	/	/	17%
CCNc1ccc(S(=O)(=O)N(C)C)cc1NCC(=O)Nc1ccccc1Cl	?	-1%	/	-17%	/	/	0%[46.1 µM]	-9%
COc1ccc(/C=C2\CCCC3C2=NN(C(=O)c2ccco2)C3c2ccc(OC)c(OC)c2)cc1OC (stereo not given)	?	-8%	?	-2%	26%	-23%	?	-2%
COc1cc(NC(=S)NC(=O)CC(C)C)ccc1NC(=O)c1cc2ccccc2o1	-5%	11%	?	-18%	-2%	-6.5%	0%	3%
Nc1ccc2c(c1)ncn2CCCn1cnc2cc(N)ccc21	4%	0%	-2%	/	0%	-1.7%	2%	6%

Full records from above. Order of values: MARV entry inh | SARS PLP yeast | Cruzain noTriton | StopGo reporter | NS1 inh | Cruzain Triton | Lassa entry inh | RE007 growth inh
CCSc1nnc(-c2cnn(-c3ccccc3)c2-n2cccc2)n1C across the screens: ? | -2% | 7% | 2% | -75% | 2.8% | -21% | 22%
COc1cc(NC(=O)c2c(OC)cccc2OC)ccc1NC(=O)c1cc2ccccc2o1 across the screens: ? | -8% | / | 23% | 7% | / | -20%[46.1 µM] | -6%
